# A1 inh: caspase 3/7 activation in MEF A1-2A-BIM cells, primary screen, A1 inhibitor project, cell-based, luminescence, HTS; Caspase-Glo 3/7 luminescence, 3 h; percent of clofoctol response, vehicle zero; caspase activation, % (no concentration beside the values); 0.066% of 330,000 active;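 active = over half of replicate activation scores above 10%, or exactly half above 10 with the replicate mean above 10; inconclusive = replicate mean below 10 yet half the replicates above 10; inactive = over half of replicates below 10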;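 note: wells of about 30 µL received 50 nL stock; many hits fall short of the cut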
# UCH37 inh: inhibitors of human UCH37 deubiquitinase, primary screen, biochemical, Ub-AMC cleavage, fluorescence; Ubiquitin carboxyl-terminal hydrolase isozyme L5 (Homo sapiens), Q9Y5K5; purified proteasome/UCH37; inhibition, % (no concentration beside the values); 0.33% of 330,000 active; AID 588478, 2011;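 active = mean of two replicates above 20%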;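 note: 0% = compound-free wells with enzyme and 100% = wells lacking proteasome; stock transfer was 100 nL into about 20 µL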
# Target sequence (Q9Y5K5 whole entry, looked up): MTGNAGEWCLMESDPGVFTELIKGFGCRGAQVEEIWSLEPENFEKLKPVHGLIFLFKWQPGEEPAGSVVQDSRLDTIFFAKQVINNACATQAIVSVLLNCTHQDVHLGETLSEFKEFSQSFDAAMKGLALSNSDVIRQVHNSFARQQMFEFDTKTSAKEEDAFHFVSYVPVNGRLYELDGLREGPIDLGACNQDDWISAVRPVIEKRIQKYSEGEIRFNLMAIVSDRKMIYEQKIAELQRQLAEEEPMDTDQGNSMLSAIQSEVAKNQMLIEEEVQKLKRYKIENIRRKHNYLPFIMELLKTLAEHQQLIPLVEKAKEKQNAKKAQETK
#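 Signal – fluorescence, ex 355 nm, em 460 nm · System – Proteasome-bound UCH37 · Input – 0.15 nM proteasome as dispensed · Timing – 30 min preincubation with enzyme, 25 min cleavage at room temperature · Read-out basis – percent inhibition of cleavage signal versus uninhibited and no-proteasome wells · Medium – Tris-HCl pH 7.4 with ATP-MgCl2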
# Beta2AR agonist: beta2AR agonists driving receptor internalization, primary screen, cell-based, FAP fluorogen, flow cytometry; Beta-2 adrenergic receptor (Homo sapiens), P07550; Am2.2-beta2AR cells; reference of the scale not given here; response, % (test concentration not listed); 0.43% of 340,000 active; AID 504454, 2011;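 active = response above a set limit, near 3 SD of response in nonfluorescent compounds, cut at about 42% in these data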;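 note: stock transfer was 100 nL into about 11 µL; a reference agonist was the positive control; negative values mostly stem from fluorescent compounds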
# Target sequence (P07550 whole entry, looked up): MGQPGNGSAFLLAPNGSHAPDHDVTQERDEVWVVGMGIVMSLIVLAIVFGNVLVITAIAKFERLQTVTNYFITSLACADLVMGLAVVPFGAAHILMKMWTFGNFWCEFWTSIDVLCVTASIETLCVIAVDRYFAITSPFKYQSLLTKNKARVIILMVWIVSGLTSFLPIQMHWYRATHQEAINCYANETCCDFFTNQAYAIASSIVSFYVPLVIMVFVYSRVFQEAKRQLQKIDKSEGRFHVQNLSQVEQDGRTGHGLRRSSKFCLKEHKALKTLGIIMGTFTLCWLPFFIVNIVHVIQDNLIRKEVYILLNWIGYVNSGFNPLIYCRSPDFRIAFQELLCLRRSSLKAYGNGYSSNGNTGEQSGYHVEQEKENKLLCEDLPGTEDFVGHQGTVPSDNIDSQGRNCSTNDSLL
# Calb FLC: C. albicans growth inhibition with fluconazole, primary screen, CaCi-2 strain, Alamar Blue fluorescence; C. albicans CaCi-2 (fluconazole-resistant clinical isolate) + fluconazole, 48 h; growth inhibition, % (test concentration not listed); 0.57% of 300,000 active; AID 1979, 2009;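 active = most replicates above 75%; inconclusive = exactly half above 75%; inactive = most below 75%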;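 note: all wells also contain fluconazole at 8 µg/ml as a sub-toxic cotreatment; 0% = median of DMSO wells and 100% = median of geldanamycin control wells; wells of about 8 µL received 7.5 nL stock; the first replicate is given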
# LANA-H2B inh: blockers of LANA interaction with H2A/H2B – biochemical, FP readout, HTS, primary screen | AID 2629, 2010 | cell-free LANA-H2A/H2B peptide, fluorescence polarization | 0.6% of 320,000 active | Protein LANA1 (Human herpesvirus 8 type P (isolate GK18)), Q9QR71 | inhibition, % (concentration not given with the values); in the data active = inhibition mostly above about 10%, no sharp cut-off; inactive = mostly below about 6.7%;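 note: stock transfer was 7.5 nL into about 10 µL; 0% = median of vehicle wells and 100% = median of positive control wells; one replicate is shown; the record names a cut of 25% in any replicate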
# Beta apoptosis: inhibitors of cytokine-induced beta cell apoptosis, primary screen, luminescence. INS-1E cytokine-induced death, ATP luminescence, 48 h; percent of positive-control rescue, neutral wells zero. protection from apoptosis, % (test concentration not listed). 0.8% of 300,000 active;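 active = all replicates at 75% or more, or half of them and the mean; inconclusive = half reach 75% but not the mean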;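 note: 0% = cytokine-treated negative control wells and 100% = positive control rescue; higher means more ATP so stronger rescue from cytokine killing; wells of about 40 µL received 100 nL stock; the first replicate is given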
# T cruzi repl: inhibitors of intracellular T. cruzi growth, primary screen, luminescence, NIH3T3 host cells. AID 1885, 2009. T. cruzi beta-gal in NIH3T3, 90 h. inhibition, % (no concentration beside the values). 1.4% of 300,000 active;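 active = mean inhibition across valid replicates above about 55%, limit read from the data; inconclusive = mean below that limit but half or more replicates reach it; inactive = mean below it, under half of replicates reach it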;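 note: signal also drops with host cell toxicity which is not excluded here; 0% = plate median of DMSO wells and 100% = zero luminescence signal; higher percent means less beta-gal luminescence so fewer parasites; stock transfer was 50 nL into about 50 µL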
# RanGTP-Imp inh: inhibitors of RanGTP-importin-beta interaction, primary screen, biochemical, FRET, CFP-Ran, YFP-importin-beta, homogeneous; cell-free CFP-Ran/YFP-importin-beta FRET ratio; inhibition, % (concentration not given with the values); 1.1% of 300,000 active;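 active = most replicates above 15%; inconclusive = exactly half above 15%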;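 note: 0% = DMSO wells and 100% = Ran loaded with GDP instead of GTP; wells of about 40 µL received 100 nL stock; the first replicate is given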
# The depositor's hits bear a star; i = inactive; ? = inconclusive; . = no result given.
SMILES,A1 inh,UCH37 inh,Beta2AR agonist,Calb FLC,LANA-H2B inh,Beta apoptosis,T cruzi repl,RanGTP-Imp inh
COc1ccc2oc(C(=O)OCC(=O)c3ccc4c(c3)OCCO4)c(C)c2c1,0.6,-2.2,3,-1,0.7,-5,3,?
Cn1nc(C(=O)Nc2ccc3c(c2)OCCO3)c2ccccc2c1=O,-0.7,3.9,1,.,-1.4,8,.,.
COc1cc2cc(C(=O)NCCc3ccccc3)[nH]c2cc1OC,-0.4,-44,12,10,0.1,-7,3,1.7
COc1cc(CCC(=O)Nc2cc(C)cc(C)c2)cc(OC)c1OC,0.3,1.8,-5,-10,4.7,5,-1,0.5
O=C(COC(=O)c1cccs1)NC12CC3CC(CC(C3)C1)C2,?,4.0,2,-14,-5.5,-3,3,1.3
CC1C(c2ccccc2)=[N+]([O-])C2(CCCCC2)N1O (stereo not given),1.3,4.2,-3,18,-3.1,-6,-24,0.6
COc1ccc(N(CC(=O)Nc2cc(Cl)ccc2C)S(=O)(=O)c2c(C)noc2C)cc1,0.0,1.8,-9,2,51*,9,14,-1.8
COc1ccc(-c2nn(-c3ccccc3)cc2/C=N/NC(N)=S)cc1OC,0.5,.,-4,0,1.9,9,37,0.7
CC(C)(O)CCCC(C)(O)c1ccc(C(=O)O)cc1O (stereo not given),1.2,2.7,3,0,-7.8,-1,-7,-2.6
O=C(CN(CCc1ccccc1)S(=O)(=O)c1ccc(Cl)cc1)N/N=C/c1ccccc1C(=O)O,0.9,.,-3,-3,-1.8,-3,-4,20*
Sc1oc(-c2ccccc2)cc1C=Nc1ccccc1,-0.1,-40,0,-8,-1.6,6,39,1.8
Cc1ccc(NC(=O)Nc2cc(S(C)(=O)=O)ccc2Cl)cc1,0.3,1.8,0,3,1.4,-15,-1,-4.9
O=S(=O)(Nc1cccc(Oc2cnccn2)c1)c1ccc(F)cc1,-1.8,1.0,12,25,-0.4,-7,1,-2.2
Cc1cccc(N2CCN(C(=O)c3c(C)nn(Cc4ccccc4Cl)c3C)CC2)c1C,0.4,1.6,5,3,-5.7,3,34,-1.8
Cc1cc(C)c(C#N)c(SCc2ccc(C(=O)O)cc2)n1,0.8,.,5,10,-2.4,-1,-14,2.9
Fc1ccc(C2CC(c3cccs3)=NN2c2ccccc2)cc1 (stereo not given),.,i,2,-8,.,.,42,0.8
CCCCN(C(=O)c1ccc(N2CCCC2=O)cc1)c1c(N)n(Cc2ccccc2)c(=O)[nH]c1=O,1.0,2.6,2,.,0.1,26,20,8.4
CCCCCC(=O)c1ccc(O)cc1O,-0.5,2.1,-3,11,0.9,-2,-12,3.9
Cc1c(NC(=O)CN2C(=O)NC(CCc3ccccc3)C2=O)c(=O)n(-c2ccccc2)n1C (stereo not given),0.9,1.1,-4,10,-0.2,-2,-11,34*
CCCCC(=O)N1CC(=O)Nc2ccc(F)cc2C1c1ccccc1 (stereo not given),-0.4,-0.1,7,-10,-1.1,-1,4,9.3
CS(=O)(=O)Cc1ccc(C(=O)NC2CCCc3ccccc32)cc1 (stereo not given),-0.5,3.4,-4,5,5.1,-4,3,3.2
O=C(COC(=O)Cc1ccccc1F)NNC(=O)c1ccc([N+](=O)[O-])cc1,0.0,2.6,0,2,-2.0,-3,-11,0.4
CCc1ccc2c(CSc3nnnn3C)cc(=O)oc2c1,0.1,1.0,11,-6,0.4,-5,4,4.2
CCSc1ncc(Cl)c(C(=O)Nc2ccc(S(=O)(=O)Nc3ncccn3)cc2)n1,-1.7,3.3,-4,33,0.6,0,-17,5.6
COc1ccccc1C(=O)NCCC(=O)NC(C)c1ccc(-n2ccnc2)cc1 (stereo not given),1.7,5.8,-7,0,-1.4,-3,0,?
CCN(CC)C(=O)Cn1cc(C(=O)C(=O)N2CCN(C)CC2)c2ccccc21,0.9,3.9,8,-13,3.6,2,-4,?
Fc1ccccc1CSc1nnc(-c2cccnc2)o1,-0.5,4.0,-15,27,1.2,-3,-21,4.9
Cc1cccnc1NC(=O)C12CCC(C)(C(=O)O1)C2(C)C (stereo not given),0.2,2.0,-2,3,-4.0,-5,-13,6.5
O=C1CCC(C(=O)N2CCCCO2)CN1CCc1ccc(Cl)cc1 (stereo not given),-0.7,2.2,11,-4,-3.2,-1,-1,3.6
C=CCn1c(CSCc2ccc(Cl)cc2Cl)nnc1SCC(=O)Nc1ccc(C(=O)O)cc1,-0.6,2.3,-6,19,-2.8,-5,-11,1.7
O=C(NCCCN1CCCC1=O)C(=O)NCC1OCCN1S(=O)(=O)c1ccc(Cl)cc1 (stereo not given),0.9,0.6,4,0,5.4,0,-1,3.9
O=C(CNC(=O)Cn1cnc2sc3c(c2c1=O)CCCC3)NCc1ccccn1,1.0,0.3,5,-7,-7.2,.,-7,5.8
O=C(Nn1cnnc1)c1csc2ccccc12,0.3,1.1,0,-5,-0.7,7,-4,11
O=C(O)c1cccc(S(=O)(=O)Nc2ccc(O)c(Sc3nc4ccccc4s3)c2)c1,0.4,4.2,3,-9,-3.3,1,-8,-6.0
COc1ccc(OC)c(CC(NC(C)=O)C(=O)NC2CCN(c3nnnn3-c3ccccc3)CC2)c1 (stereo not given),-0.1,0.5,.,-2,2.3,-3,-20,3.3
Cc1ccccc1OCCn1cc(C(=O)O)c2ccccc21,-1.7,1.6,6,18,-1.5,.,2,6.6
O=C(O)COc1cccc(NC(=O)c2ccccc2)c1,-2.3,2.4,11,4,5.2,-10,-5,1.1
COc1ccc(CCNC2=CC(=O)N(c3ccc(F)cc3)C2=O)cc1,-0.2,-87,11,?,-2.5,0,-4,-0.3
Cc1ccc(NC(=O)CCN2C(=O)CSC2=O)cc1,-0.4,-6.3,-6,-4,3.4,-8,-15,-6.6
CCC(C)(C)NC(=O)C(OC(=O)c1ccco1)c1ccccc1OC (stereo not given),-0.1,1.3,0,-9,1.1,2,4,0.9
CCOC(=O)c1ccc(N2C(=O)CC(N3CCN(C(=O)c4ccccc4)CC3)C2=O)cc1 (stereo not given),-0.5,2.0,3,10,0.8,-1,-4,-11
Cc1ccc(NS(=O)(=O)c2ccc3c(c2)oc(=O)n3C)cc1,0.3,0.0,6,-2,4.2,-8,18,3.5
CC1=Nc2ccc(C)cc2/C1=C/c1c(N)n2nc(CC(=O)N3CCOCC3)sc2nc1=O,1.5,-6.1,12,-9,-4.2,-3,-13,?
Cc1ccc(C2=[N+]([O-])C(C)(C)N(O)C2(C)C)cc1,0.3,-1.7,12,2,-1.0,-6,-27,2.7
O=C(N/N=C\c1c(O)ccc2ccccc12)c1ccc(Cn2cccn2)o1,0.4,.,8,20,-0.1,79*,14,?
CCCCc1ccc(NC(=O)CSc2nc(=O)n(CCN3CCOCC3)c3c2CCC3)cc1,0.0,4.1,-2,24,1.3,.,15,5.3
COc1cc(-c2nnc(COC(=O)C3c4ccccc4Oc4ccccc43)o2)cc(OC)c1OC,0.7,4.1,1,-6,2.7,1,1,0.2
CCN(CC)Cc1c(C(=O)N/N=C/c2cccc(OCc3cccc(Cl)c3)c2)nnn1-c1nonc1N,0.8,.,1,29,2.7,-4,-5,-3.4
CCN(Cc1ccccc1)C(c1cc2cc(C)cc(C)c2[nH]c1=O)c1nnnn1CCOC (stereo not given),0.2,-3.1,5,5,4.1,2,23,8.5
COc1ccccc1OCC(=O)NNC(=O)C1CCN(c2ncnc3sc(C)c(C)c23)CC1,-0.3,4.6,13,.,5.1,2,.,.

# Part of the list above, limited to Beta apoptosis and RanGTP-Imp inh.
mol,Beta apoptosis,RanGTP-Imp inh
Cc1ccc(C2=[N+]([O-])C(C)(C)N(O)C2(C)C)cc1,-6,2.7
CCOC(=O)c1ccc(N2C(=O)CC(N3CCN(C(=O)c4ccccc4)CC3)C2=O)cc1 (stereo not given),-1,-11

# Other records follow:
SMILES,A1 inh,UCH37 inh,Beta2AR agonist,Calb FLC,LANA-H2B inh,Beta apoptosis,T cruzi repl,RanGTP-Imp inh
COc1ccc(N/N=C(\C#N)C(N)=O)cc1,-0.7,.,-1,-1,3.6,-4,13,-1.8
CC(C)(C)NC(=O)COc1ccc(CNCc2ccccn2)cc1,-0.2,.,-1,-2,-2.3,-2,2,3.6
CCN1C(=O)C(CC(=O)N2CCN(C(c3ccccc3)c3ccccc3)CC2)N(CC)C1=O (stereo not given),0.6,-0.5,0,-8,-9.6,-2,7,3.2
O=C(CN1CCN(S(=O)(=O)c2ccccc2F)CC1)N1CCc2ccccc2C1,-0.6,0.8,1,.,2.0,0,.,.
COc1cc(CC(=O)OCC(=O)N2CCN(C(=O)c3ccco3)CC2)cc(OC)c1OC,-0.1,2.4,0,.,-1.7,-2,.,.
CC(C)c1nnc(NC(=O)CN2C(=O)c3ccccc3C2=O)s1,0.2,2.0,-1,-2,9.3,5,-8,-3.6
COc1ccc(C2=NOC(C)(c3nnc(-c4ccccc4)o3)C2)cc1 (stereo not given),0.2,2.6,-8,-6,0.3,-10,23,-2.5
Cc1ccc(CN(CC(=O)NC(C)(C)C)C(=O)CNC(=O)c2cccs2)cc1,-1.1,1.6,0,-7,-1.1,-5,0,?
CC(=O)Nc1ccc(Sc2ccccc2C(=O)N2CCCC2)cn1,0.1,0.2,-2,6,12,4,-12,-1.2
Cc1ccccc1NC(=O)Cn1c(=O)n(CC2CCCO2)c(=O)c2ccccc21 (stereo not given),-0.1,4.6,2,0,1.6,-3,-7,0.4

# Shown as a hit in RanGTP-Imp inh, of those listed so far:
structure,A1 inh,UCH37 inh,Beta2AR agonist,LANA-H2B inh,RanGTP-Imp inh
O=C(CN(CCc1ccccc1)S(=O)(=O)c1ccc(Cl)cc1)N/N=C/c1ccccc1C(=O)O,0.9,.,-3,-1.8,20*
Cc1c(NC(=O)CN2C(=O)NC(CCc3ccccc3)C2=O)c(=O)n(-c2ccccc2)n1C (stereo not given),0.9,1.1,-4,-0.2,34*

# New compounds follow:
SMILES,A1 inh,UCH37 inh,Beta2AR agonist,Calb FLC,LANA-H2B inh,Beta apoptosis,T cruzi repl,RanGTP-Imp inh
CCOc1ccccc1NC(=O)[C@@H](NC(=O)c1cccc(S(=O)(=O)N2CCOCC2)c1)C(C)C,-0.8,-0.6,3,-3,0.3,2,1,?
CC(C)c1ccc(NC(=O)CSc2ncccc2C(=O)Oc2cccc([N+](=O)[O-])c2)cc1,-0.1,5.6,-3,-12,2.1,0,-5,-0.3
COC(=O)C1=NNCC12CC(=O)N(c1ccc(Br)cc1)C2=O (stereo not given),0.7,-1.7,7,-8,-4.5,-4,10,-2.2
Cc1onc(-c2c(F)cccc2Cl)c1C(=O)Nc1cccc(Cn2cccn2)c1,-0.4,2.6,-5,0,0.6,10,8,3.6
CCN(CC(=O)Nc1ccc(NC(C)=O)cc1)C(=O)C12CC3CC(CC(Cl)(C3)C1)C2,1.6,5.5,1,-2,2.7,3,-2,-0.9
CCOC(=O)C(NC(C)=O)C(=O)Nc1ccc(C(C)(C)C)cc1 (stereo not given),-0.2,2.9,9,-31,0.5,-2,7,-1.2
